# Assay outcomes from PubChem.
# D2 potentiator – potentiates the human D2 dopamine receptor allosterically; AID 624464; DiscoveRx D2 beta-arrestin cells, luminescence, 90 min; 100% = 57 uM dopamine signal; potentiation, % (test concentration not listed); 0.23% of 360,000 active; P14416; active = potentiation of 50% or more; inconclusive = 30% to 50%; inactive = 30% or less;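 further: compound concentration not given in the record; tested on top of an EC20 dose of dopamine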
#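 PathHunter beta-arrestin assay in DiscoveRx D2 cells. Compounds were added with an EC20 of dopamine (50 nM final) for 90 min at 37 deg C. Luminescence was read 1 h after detection reagent, with 57 uM dopamine as the EC100 control.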
# TRPV1 PAM – enhances activation of the human vanilloid receptor TRPV1. Q8NER1. TRPV1-expressing cells, Fluo-8 calcium influx, capsaicin EC20 potentiation; host cell line not named in the record; control for the full effect not named in the record. potentiation, % at 8.33 µM. 0.02% of 320,000 active. AID 540277; active means potentiation above 80%; inconclusive means 30% to 80%; inactive means below 30%; further: 0% is about no effect
# Target sequence (Q8NER1 whole entry, looked up): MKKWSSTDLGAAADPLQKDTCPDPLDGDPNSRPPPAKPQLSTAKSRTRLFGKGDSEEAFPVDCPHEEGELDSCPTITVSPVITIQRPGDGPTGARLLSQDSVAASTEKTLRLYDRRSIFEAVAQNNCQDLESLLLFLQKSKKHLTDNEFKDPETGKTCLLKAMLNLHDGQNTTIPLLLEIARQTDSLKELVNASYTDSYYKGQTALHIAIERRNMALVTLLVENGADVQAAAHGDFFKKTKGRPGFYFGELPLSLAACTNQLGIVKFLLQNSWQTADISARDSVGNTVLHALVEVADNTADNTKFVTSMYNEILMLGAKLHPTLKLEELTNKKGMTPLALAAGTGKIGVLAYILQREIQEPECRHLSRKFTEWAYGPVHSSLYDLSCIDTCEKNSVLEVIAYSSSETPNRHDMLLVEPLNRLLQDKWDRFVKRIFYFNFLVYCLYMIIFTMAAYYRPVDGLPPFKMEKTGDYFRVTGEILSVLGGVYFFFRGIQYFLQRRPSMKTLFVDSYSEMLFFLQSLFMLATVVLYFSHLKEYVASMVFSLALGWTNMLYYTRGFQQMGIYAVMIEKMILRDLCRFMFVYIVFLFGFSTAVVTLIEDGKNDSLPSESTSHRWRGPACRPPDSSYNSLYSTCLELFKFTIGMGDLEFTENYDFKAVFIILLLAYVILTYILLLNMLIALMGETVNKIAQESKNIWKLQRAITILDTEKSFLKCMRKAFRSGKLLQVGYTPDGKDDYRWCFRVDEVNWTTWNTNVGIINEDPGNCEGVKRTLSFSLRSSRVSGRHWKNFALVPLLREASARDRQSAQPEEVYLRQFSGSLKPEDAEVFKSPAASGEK
#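 TRPV1-expressing cells were cultured overnight at 35.5C and loaded with Fluo-8 calcium dye for 40 to 90 min at room temperature. After a 10 s baseline, compound was added and calcium influx was read kinetically for 3 min (ex 480/em 520 nm).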
# PINK1 expr mod – PINK1 expression modulation. Potency, µM (series often up to 76.6 µM), without a hit: at the top dose activation (PINK1 increase), usual class: activators. 0.2% of 410,000 active. PINK1 immunofluorescence, high-content cytometry, 24 h; active = well fitted activation curve with a large enough effect; inconclusive = small, poorly fitted or top-dose-only effect; inactive = flat fitted curve, though single readings scatter; cell line not stated here;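 further: potency means the concentration at half of the fitted maximal effect; % of control where 0% means no effect; nearly all actives have a fitted effect of over 65% in size; a mitochondrial uncoupler was the plate control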
#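 Decision-based qHTS: stable cells, 24 h exposure to five compound concentrations, CCCP as control. Fixed cells stained for PINK1 plus nuclear, mitochondrial and cell markers, cytometer read.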
# CtBP-E1A inh – inhibitors of CtBP/E1A interaction; AlphaScreen GST-E1A/His-CtBP binding, 1536-well; hits give low values; control for the full effect not named in the record; activity change, % (no concentration beside the values); 0.49% of 340,000 active; in the data active means activity change below about -65%; inconclusive means about -30% to -65%; inactive means above about -30%; further: on the % scale 0 is the no-effect control and ±100 the full control effect; compound concentration not given in the record
#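 Protein mix (5X: 125 nM each GST-E1A, His-CtBP) was incubated with pinned compound 2 h at 37 deg C in dark, in 50 mM Tris pH 8.0 buffer with 300 mM NaCl. Glutathione donor and nickel acceptor beads followed; AlphaScreen signal read after 1 h.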
# D2 agonist – activates the human D2 dopamine receptor. P14416. 0.084% of 360,000 active. activation, % (concentration not given with the values). DiscoveRx PathHunter D2 beta-arrestin, luminescence, 90 min; 100% = 57 uM dopamine signal; in the data active = activation above about 40%; inconclusive = about 15% to 40%; inactive = below about 15%; further: compound concentration not given in the record; the text of the record calls up to 30% inactive
#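 DiscoveRx PathHunter D2 beta-arrestin cells (2,100/well) attached overnight, then compound-stimulated 90 min at 37 C in HBSS/10 mM HEPES/0.1% Tween-20 buffer; beta-galactosidase complementation read by luminescence after 1 h at ambient temperature. Dopamine 57 uM final (EC100) as control.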
# Six1-Eya2 inh – Six1/Eya2 interaction inhibition | 0.56% of 360,000 active | activity change, % (test concentration not listed) | Q15475+O00167 | AID 651725 | AlphaScreen GST-Six1/His-Eya2 binding, biochemical; hits give low values; control for the full effect not named in the record; in the data active = activity change below about -65%; inconclusive = about -30% to -65%; inactive = above about -30%; further: on the % scale 0 is the no-effect control and ±100 the full control effect; compound concentration not given in the record
#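 Compounds are tested against tagged Six1 and Eya2 proteins bridged by glutathione donor and nickel acceptor beads; after a one-hour incubation at 37 °C without light, AlphaScreen emission is recorded.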
# Sfp inh – inhibitors of Bacillus subtilis Sfp phosphopantetheinyl transferase; Q9F4F7; Biochemical Sfp PPTase activity, qHTS; Potency, µM, for the others: max response, negative = inhibition, usual class: inhibitors; 3.5% of 310,000 active; AID 1490; active means well fitted inhibition curve with a large enough effect; inconclusive means small, poorly fitted or top-dose-only effect, or another doubt; inactive means no such curve, though single readings can be large or run the other way;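 further: the enzyme is Sfp with the accession as filed and its product quenches rhodamine fluorescence; potency means the concentration at half of the fitted maximal effect; 0% = enzyme reaction without inhibitor and -100% = no enzyme wells; top concentration of the series not given in the record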
#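 With Hepes-Na pH 7.6 buffer containing 10 mM MgCl2, Sfp (15 nM) modified BHQ-2-YbbR (12.5 uM) using rhodamine-CoA (5 uM). Two reads 30 minutes apart at 525/598 nm yielded each well's rate.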
# Starred values were filed as active, the others as inactive; ? = inconclusive; / = no result given; [ ] = dose if it differs, or a comment. Compounds were not picked by outcome; 3.7% or so of the library scored in one or more.
SMILES,D2 potentiator,TRPV1 PAM,PINK1 expr mod,CtBP-E1A inh,D2 agonist,Six1-Eya2 inh,Sfp inh
CC1CCN(CCCCOc2ccc(Cl)cc2)CC1,-21,?,-1.2%,1,1.1,3,-13%
COc1ccc(-c2cc(C(=O)N3CCCCC3)no2)cc1OC,-10,-18,4.9%[38.3 µM],5,-3.5,4,-3%
Cc1cnc(C(=O)OCc2ccc(Br)cc2F)cn1,-12,0,2.2%,9,-1.4,0,9%
CN1C[C@@H]2[C@@H]3C(=O)N(C)C(=O)[C@@H]3[C@](C)(C1=O)N2C(=O)c1ccc(Cl)cc1,-4,/,1.7%,6,-1.1,3,/
O=C(N/N=C/c1ccc([N+](=O)[O-])s1)c1ccncc1,-4,-4,1.1%,?,4.6,-7,-2%
O=S(=O)(Nc1ncnc2sc3c(c12)CCC3)c1ccc2ccccc2c1,-35,19,0.6%,-11,-2.2,-25,16%
COc1cc(C(C)=O)ccc1OCC(=O)N1CCCC1c1ccc2c(c1)OCCCO2 (stereo not drawn),-3,/,2.6%,-6,-0.6,-2,/
COc1cccc(CNCc2cccnc2)c1OCc1ccccc1,-12,0,0.6%,-2,-2.9,7,9%
CC(C(=O)Nc1nncs1)N1C(=O)C2C3C=CC(C3)C2C1=O (stereo not drawn),-15,5,-4.3%,-1,-3.0,2,16%
CC(C)NC(=O)COc1ncnc2sccc12,1,-19,-1.6%[38.3 µM],-2,1.2,-2,15%
CC(C)Oc1ccc(CC2CC(=O)NC2=O)cc1 (stereo not drawn),-4,0,1.2%,0,-0.7,-4,-3%
Cc1ccc(C(=O)Cn2nnc3ccccc32)cc1[N+](=O)[O-],-2,-6,-1.2%,/,-10,-4,10%
CCc1ccnc(NC(=O)Nc2ccc(OCc3ccccc3)cc2)c1,-2,-5,3.9%,8,0.8,6,-1%
O=C(Nc1ccc2c(c1)OCO2)N1CCN(c2ccc(F)cc2)CC1,-6,2,-0.1%,-3,-0.3,-6,1%
CCOC(=O)Cc1csc(NC(=O)c2ccc(S(=O)(=O)N(CCOC)CCOC)cc2)n1,-2,3,0.7%,-6,1.4,-1,11%
CCCCCSc1nc2c(c(=O)[nH]c(=O)n2C)n1C,-10,-5,-0.6%,0,-5.3,0,8%
CS(=O)(=O)c1ccc(Cl)c(NC(=O)COC(=O)CCCN2C(=O)c3cccc4cccc(c34)C2=O)c1,-8,28,2.0%,9,0.4,7,/
COc1ccc(Cl)cc1C(=O)CSc1nnnn1C1CCCC1,-11,6,2.0%[38.3 µM],27,-0.4,8,-17%
CC(Oc1ccccc1)C(=O)N=C1SC2CS(=O)(=O)CC2N1Cc1ccc(F)cc1 (stereo not drawn),-5,4,0.7%,-1,0.3,4,18%
O=C(Nc1cccnc1)c1ccc(-c2ccc(Cl)cc2)o1,-13,-9,-1.2%,4,-3.9,9,5%
O=C(O)c1ccn(CSc2cc(Cl)ccc2Cl)n1,5,-5,-0.1%,/,-1.5,0,/
C/C(=N\N=C1\NC(=O)C(CC(=O)Nc2ccccc2F)S1)C1CCCCC1 (stereo not drawn),0,11,-0.2%,0,1.9,-4,14%
O=C(Cc1ccccc1)NCCc1c[nH]c2ccccc12,1,11,-1.6%,-4,4.1,-7,2%
Cn1nnc(NC(=S)NC(=O)c2cc3ccccc3o2)n1,-18,0,-0.7%,/,-9.1,1,50µM*
Cc1cc(/C=N/n2cnnc2)c(O)c([N+](=O)[O-])c1,-34,19,1.2%,-8,-4.6,0,-4%
OC(CNC1Cc2ccccc2C1)c1ccccc1 (stereo not drawn),-6,12,0.6%,-14,0.8,-17,3%
CCOC(=O)c1cnc2c(OC)cccc2c1N1CCN(c2ccccn2)CC1,3,-15,-0.2%,-11,-3.7,-1,6%
COc1ccc(C2CC(c3ccc(Br)cc3)=NN2C(=O)CSC2=NCCS2)cc1 (stereo not drawn),-22,-1,-1.6%,-18,-3.9,-14,-3%
O=C(CNC(=O)C1COc2ccccc2O1)Nc1cc(Cl)ccc1Cl (stereo not drawn),0,12,-1.0%,11,2.0,-2,/
O=C(NCc1ccco1)c1ccc2c(c1)CCO2,-5,-7,1.1%,13,0.7,5,6%

# Single records, from the list above:
# `O=C(CNC(=O)C1COc2ccccc2O1)Nc1cc(Cl)ccc1Cl` (stereo not drawn) as listed: D2 potentiator = 0; TRPV1 PAM = 12; PINK1 expr mod = -1.0%; CtBP-E1A inh = 11; D2 agonist = 2.0; Six1-Eya2 inh = -2; Sfp inh = /
# `COc1cccc(CNCc2cccnc2)c1OCc1ccccc1` as listed: D2 potentiator = -12; TRPV1 PAM = 0; PINK1 expr mod = 0.6%; CtBP-E1A inh = -2; D2 agonist = -2.9; Six1-Eya2 inh = 7; Sfp inh = 9%

# (continued)
SMILES,D2 potentiator,TRPV1 PAM,PINK1 expr mod,CtBP-E1A inh,D2 agonist,Six1-Eya2 inh,Sfp inh
C[C@H](O)[C@@H]1C(=O)N2CCc3ccc(-c4ccccc4)cc3[C@@H]2C[C@@H]1N(C)C(=O)c1ccco1,-7,/,3.7%,7,-1.7,10,/
CC(C)N(CCn1c(SCC(=O)N2CC(=O)Nc3ccccc32)nc2ccccc2c1=O)C(C)C,-23,-1,2.0%,-2,-5.2,-9,24%
CC(=O)c1cccc(NC(=S)NNC(=O)c2ccc(C)c([N+](=O)[O-])c2)c1,-25,18,-0.8%,0,-4.7,-13,19%
Cc1ccnc(SCC(=O)Nc2sc3c(c2C#N)CCC(C(C)(C)C)C3)n1 (stereo not drawn),9,5,-2.4%,0,-0.1,-1,9%
Cc1ccccc1-c1cc2nc(Oc3cccc4ccccc34)n(C)c(=O)c2s1,14,/,1.7%,27,6.8,8,/
O=C(Nc1ccc(F)c(F)c1)NC1CCCCC1,-3,-12,2.7%,5,-3.0,-2,10%
CCC1C(=O)N(c2nc(C)cc(C)n2)N=C1C (stereo not drawn),0,7,?,8,-2.5,1,56µM*
Cc1ccc(-n2ncc3c(=O)n(Cc4ccccn4)cnc32)cc1C,10,8,3.8%,-1,-3.5,0,-9%
Cc1nc2ccccn2c1C(=O)C(=O)Nc1cc(F)ccc1F,0,-13,-0.3%,-28,-0.7,-15,10%
CCOC(=O)c1c(C)[nH]c(C(=O)COC(=O)/C=C/c2ccc(O)c(OC)c2)c1C,7,20,0.4%,-14,-0.4,0,0%
FC(F)(F)C1CCCN(c2nsc3ccccc23)C1 (stereo not drawn),-7,-12,0.4%,-3,-4.3,-3,16µM*
CCCCCCN1C[C@H](O)[C@@H](n2cc(C3CC3)nn2)C[C@@H]1c1ccccc1,-1,/,1.2%,-1,-1.1,-7,/
COc1cc(/C=C(\C#N)c2nnc(N3CCOCC3)n2-c2ccccc2)ccc1O,-11,-18,2.2%,/,-1.9,-1,-1%
CCOc1ccccc1OCC(=O)Nc1ccc(N2CCCCC2)cc1,0,-1,0.0%[38.3 µM],?,-2.8,-28,14%
CCN(CC)CCn1c(/N=C/c2cc(Br)ccc2O)nc2ccccc21,-8,-4,0.6%,4,-4.0,5,-2%
Cc1ccc2nc(Br)c3c(c2c1)OC(CBr)C3 (stereo not drawn),-8,0,-0.5%,/,-3.8,6,6%
COc1ccc(OC)c(NC(=O)CSc2nnc(NC(=O)c3ccco3)s2)c1,-7,29,-1.4%,-4,-0.2,-17,-4%
CCOC(=O)CN(C(=O)CNC(=O)c1cccs1)C(C(=O)NC1CCCC1)c1ccncc1 (stereo not drawn),0,3,-0.4%,7,0.9,5,9%
Cc1nnsc1C(=O)Nc1cc(Cl)ccc1Cl,-7,2,-3.6%[38.3 µM],41,-2.2,24,-3%
CCOc1ccc(S(=O)(=O)/N=C(\N)c2ccccc2)cc1,-5,5,2.3%,-5,3.9,-4,18%
CN(Cc1ccco1)C(=O)CC[C@H]1O[C@@H](n2ccc(=O)[nH]c2=O)[C@H](O)[C@@H]1O,-6,/,3.8%,-1,-4.9,4,/
O=C(Nc1ccncc1)c1ccc2ccccc2c1,-9,-2,-1.0%,0,-1.0,-4,-9%
Cc1nn(S(=O)(=O)c2cccc([N+](=O)[O-])c2)c(C)c1Br,62*,9,-2.3%,0,12,-17,1%
CCCOc1ccc(Cc2nn[nH]n2)cc1,0,-2,-1.4%,0,-0.9,5,-6%
CCN(Cc1ccccc1)C(=O)c1cc2cc(OC)c(OC)cc2[nH]1,-4,-10,-0.4%,7,3.9,-9,7%
CC(C)c1nc(SCC(=O)Nc2cccc(S(N)(=O)=O)c2)n[nH]1,7,2,-1.7%,1,-0.6,-1,18%
c1ccc2nc3c(nc2c1)CCc1nonc1-3,-1,-1,0.4%[38.3 µM],-4,-2.2,-8,5%
O=C(NC1=NCCS1)c1ccc(Cl)c(S(=O)(=O)N2CCCC2)c1,1,-18,4.9%,0,1.9,4,-6%
Cc1ccsc1C(=O)OCc1csc(-c2ccccc2)n1,-9,7,3.0%,67,-0.7,64,-25%
COc1cc(NC(=S)N2CCN(CCO)CC2)c(OC)cc1Cl,-7,7,-1.9%,-1,-2.8,-3,-6%
CS(=O)(=O)N(CC(=O)N1CCCCC1)Cc1ccc(Cl)cc1,1,-6,1.1%,-7,-0.3,-1,0%
Cc1ccc(/C=N/NC(=O)c2ccc(C(=O)N/N=C/c3ccc(C)s3)o2)s1,-8,3,?,-5,-1.2,-4,10%
CS(=O)(=O)N(CC(=O)NC1CCCC1)C1CCCCC1,-9,-6,0.4%,-16,0.2,-2,16%
CC(=O)Oc1ccc(C(=O)Nc2nccs2)cc1,-4,-10,2.0%,-1,6.0,-7,-5%
O=C(NCC1CCCO1)c1nn2cccnc2c1Cl (stereo not drawn),-4,1,0.8%,-1,-2.5,9,6%
Cc1cccc[n+]1CC(=O)c1ccc2c(c1)OCCO2,1,8,-0.4%,8,2.7,9,2%
COc1ccc(OC)c(Nc2nc(-c3sc(N)nc3C)cs2)c1,-4,-14,0.2%[38.3 µM],-68*,1.8,?,8.9µM*
Cc1cccc(C(=O)NCC(=O)N2CC=C(c3ccccc3)CC2)c1,1,19,8.9%,/,1.3,-8,/
COc1cc(OC)cc(-n2nnnc2SCC(=O)NC2CCCC2)c1,-8,3,-0.2%,1,0.6,4,13%
C(=N\N1CCN(C2c3ccccc3-c3ccccc32)CC1)/c1ccccn1,-3,-2,4.7%,-20,-1.2,-7,-22%
NCCCCCNC(=O)/C=N\O,14,-6,-0.6%,2,-1.9,4,8%
Cc1ccc(OCC(=O)Nc2ccc3c(c2)OCCO3)cc1C,-4,-52,1.5%,-12,1.3,16,9%
COCCn1cnnc1SCC(=O)Nc1sc2c(c1C#N)CCC2,-1,9,2.8%,8,-0.8,-6,/
